Bioassay records (PubChem BioAssay)
TSHR ag: TSH receptor (human) agonism; P16473; HEK293-CNG-TSHR cells (CNG channel as cAMP sensor), membrane potential dye, cAMP; Potency, µM (highest dose often 57.1 µM), for inactives: top-dose activation, most hits filed as activators; actives 0.48% (n = 73,000); active = well fitted activation curve of enough size with the parental cells flat; inconclusive = any curve in the parental cells; inactive = parental cells flat and receptor cells flat or falling; further: potency means the concentration at half of the fitted maximal effect; % of control where 0% means no effect; weak receptor curves with flat parental cells got no call and are not listed
Target sequence (P16473 whole entry, looked up): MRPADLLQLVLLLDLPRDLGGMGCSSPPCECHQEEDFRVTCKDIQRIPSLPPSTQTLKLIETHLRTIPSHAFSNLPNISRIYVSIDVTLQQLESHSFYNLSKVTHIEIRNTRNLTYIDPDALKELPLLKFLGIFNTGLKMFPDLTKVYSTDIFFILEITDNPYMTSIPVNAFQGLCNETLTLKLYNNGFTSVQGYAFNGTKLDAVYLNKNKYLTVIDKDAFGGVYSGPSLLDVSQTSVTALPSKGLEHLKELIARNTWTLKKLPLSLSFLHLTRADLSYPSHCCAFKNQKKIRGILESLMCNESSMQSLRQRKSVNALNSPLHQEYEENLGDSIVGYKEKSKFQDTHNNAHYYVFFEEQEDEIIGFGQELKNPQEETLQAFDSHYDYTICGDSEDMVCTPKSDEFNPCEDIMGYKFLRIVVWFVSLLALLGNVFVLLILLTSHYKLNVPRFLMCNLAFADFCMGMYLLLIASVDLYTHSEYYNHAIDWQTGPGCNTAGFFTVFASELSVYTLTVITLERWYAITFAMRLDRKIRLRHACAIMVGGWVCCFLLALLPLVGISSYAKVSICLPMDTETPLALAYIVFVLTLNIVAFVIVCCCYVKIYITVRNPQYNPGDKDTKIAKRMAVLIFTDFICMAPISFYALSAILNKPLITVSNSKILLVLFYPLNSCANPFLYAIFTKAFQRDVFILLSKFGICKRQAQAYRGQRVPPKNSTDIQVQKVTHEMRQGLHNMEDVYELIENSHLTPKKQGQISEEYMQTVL
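HEK 293 cells stably expressing TSHR and a cAMP-gated CNG channel; parental CNG-only cells as counterscreen. Cells preloaded 60 min with membrane potential dye plus 100 uM RO 20-1724, then compound 30 min; fluorescence read at 590 nm.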
AID923: qHTS Assay for Allosteric/Competitive Inhibitors of Caspase-1: Spectroscopic Profiling in AFC Spectral Region; actives 1.1% (n = 75,000); Potency, µM (doses to about 57.5 µM), for inactives: at the top dose fluorescence increase, usual class: activators; compound fluorescence, AFC spectral region (405/520 nm); almost no hit is shown here; active means well fitted activation curve with a large enough effect; inconclusive means small, poorly fitted or top-dose-only effect;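 further: potency means the concentration at half of the fitted maximal effect; 0% is about no effect; scaled to a free AFC standard on each plate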
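Titrations up to 57 uM read every 20 sec for 3 min (405/520 nm) with 50 nM caspase 1 and 5 uM Ac-WEHD-AFC, pH 7.5 HEPES buffer. Fluorescence-vs-time intercept gave baseline, scaled against on-plate AFC standard.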
Resorufin fluor: resorufin region autofluorescence; max dye-equivalent concentration, M; Compound fluorescence, resorufin region 547/598 nm, buffer; hits give high values; actives 0.04% (n = 59,000); active = above 10 nM dye equivalent; inconclusive = 1 to 10 nM; inactive = 1 nM or less; a few of its hits are not listed in these tables; further: highest value over a series up to 38 µM
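Read-out: intrinsic compound fluorescence at ex 547/em 598 nm after 15 min at RT in pH 8.0 Tris (100 mM). Values expressed as resorufin-equivalent concentration from per-plate standard series.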
A647 fluor: compound fluoresces in the A647 spectral region. max dye-equivalent concentration, M. 59,000 tested, under 10 active. Compound fluorescence, A647 channel (570/671 nm), Tris buffer. AID 592; active means above 1 µM dye equivalent; inconclusive means 0.1 to 1 µM; inactive means 0.1 µM or less;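 further: values scaled relative to a standard on each plate; highest value over a series up to 38 µM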
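Buffer was dispensed, compounds and Alexa 647 standards were pin-transferred, and plates sat 15 min at room temperature. Intensity at 570/671 nm was then converted to dye-equivalent concentration using the plate's A647 standard curve.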
A488 fluor: compound autofluorescence in A488 spectral region. actives 0.1% (n = 59,000). compound autofluorescence, A488 spectral region, dye equivalency; hits give high values. max dye equivalency, M; active = above 10 nM dye equivalent; inconclusive = 1 to 10 nM; inactive = 1 nM or less; about half of its hits are not listed in these tables;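 further: highest value over a series up to 38 µM; compound alone in buffer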
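Spectroscopic profiling in the A488 region: compounds in pH 8.0 Tris (100 mM), 15 min RT, CCD imaging with 480 nm excitation and 540 nm emission; responses normalized against A488 dye standards.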
* hit, by the source's call; i = inactive; ? = inconclusive; . = not tested or not shown; [ ] = dose if it differs, or a comment. Only part of the results is shown; rates above refer to the full screens.

SMILES | TSHR ag | AID923 | Resorufin fluor | A647 fluor | A488 fluor
COCC(=O)N1CCC2(CC1)CN(c1ccc(-c3ccccc3)cc1)C2 | 8.2% | -1.4% | i | 3.8e-09 | i
CCC1Oc2ccccc2N(CC(=O)NCCCN2CCC(C)CC2)C1=O (centres undefined) | 9.3% | -1.2% | i | 3.42e-08 | i
CCOC(=O)N1CCN(CCC(=O)Nc2ccc(C)cc2)CC1 | -1.1% | 0.7% | . | . | .
O=C(CN(Cc1ccccc1)C(=O)c1ccc2c(c1)OCCO2)NCc1ccc2c(c1)OCO2 | 7.94µM* | -0.2% | i | 1e-09 | i
O=C(Oc1ccccc1)N1CCC2(CC1)CN(c1ccccc1)C2 | ? | 0.7% | i | 8.9e-09 | i
COC(=O)C1CC1C(NC(=O)[C@H]1CCCCN1)c1ccccc1 (some centres undefined) | ? | -1.0% | . | . | .
CN(C)CCCN1c2ccccc2Sc2ccc3ccccc3c21 | 3.0%[11.4 µM] | 0.6%[11.5 µM] | i | 3.96e-08 | i
O=C(CCCCCn1c(=O)[nH]c2ccccc2c1=O)N1CCN(Cc2ccc3c(c2)OCO3)CC1 | 3.7%[11.4 µM] | -0.6% | i | 3.85e-08 | i
O=C(O)c1ccccc1S | . | . | i | 9.1e-09 | i
CCOC(=O)N1CCC(NC(=O)CCC(=O)N2CC(C)Oc3ccccc32)CC1 (centres undefined) | 4.4% | 0.3% | i | 1e-09 | i
COCc1nnc(NS(=O)(=O)c2ccccc2)s1 | -1.1% | -0.1% | i | 4.3e-09 | i
COc1ccccc1C(=O)Nn1c(C2CCC2)nc2ccccc2c1=O | ? | -1.3% | i | 6.9e-09 | i
O=C(Nc1cccc(-c2cnc3ccccc3n2)c1)c1ccco1 | 7.9% | 2.2% | i | 1e-09 | i
O=C(c1ccccc1CCc1ccccc1)N1CCN(c2ccccn2)CC1 | ? | 0.3% | i | 2e-09 | i
C=C(C)COc1ccc(-c2[nH]ncc2Oc2ccccc2OCC)c(O)c1 | 5.6% | 0.2% | i | 1.7e-09 | i

Some entries already given with just Resorufin fluor, AID923 and A647 fluor.
Structure | Resorufin fluor | AID923 | A647 fluor
O=C(O)c1ccccc1S | i | . | 9.1e-09
CCOC(=O)N1CCC(NC(=O)CCC(=O)N2CC(C)Oc3ccccc32)CC1 (centres undefined) | i | 0.3% | 1e-09

Single records, from the list above.
Listed for CN(C)CCCN1c2ccccc2Sc2ccc3ccccc3c21 = TSHR ag = 3.0%[11.4 µM]; AID923 = 0.6%[11.5 µM]; Resorufin fluor = i; A647 fluor = 3.96e-08; A488 fluor = i
Listed for O=C(c1ccccc1CCc1ccccc1)N1CCN(c2ccccn2)CC1 = TSHR ag = ?; AID923 = 0.3%; Resorufin fluor = i; A647 fluor = 2e-09; A488 fluor = i

Following part:
SMILES | TSHR ag | AID923 | Resorufin fluor | A647 fluor | A488 fluor
CCOc1cc(C(=O)NCc2ccncc2)cc(OCC)c1OCC | -3.6% | -0.6% | i | 2.14e-08 | i
Cc1cc2ncn(S(=O)(=O)c3ccc(S(=O)(=O)N4CCOCC4)cc3)c2cc1C | -1.7% | 0.5% | i | 2e-09 | i
O=C(Nc1ccc2c(c1)OCO2)OCc1ccccc1 | ? | -0.2% | i | 4.6e-09 | i
Cc1ccc(-n2ncc3c2ncn2c(C)nnc32)cc1C | 7.6% | -0.4% | i | 1e-09 | i
CC1=C(C(=O)N(C)Cc2ccccc2)C2(CCC(C)CC2)OC1=O (centres undefined) | ? | 0.7% | . | . | .
CC(=O)Nc1ccc(S(=O)(=O)N2CCN(C(=O)Cc3ccccc3)CC2)cc1 | -10.5% | 1.8% | i | 1e-09 | i
O=S(=O)(NCc1cccnc1)c1ccc(Cl)c(Cl)c1Cl | 8.0% | -0.9% | i | 9e-09 | i
Cc1ccc(S(=O)(=O)Cc2ccc(C(=O)NCc3ccc4c(c3)OCO4)o2)cc1 | 7.9% | 0.0% | i | 1e-09 | i
CCC(=O)NCCc1cc2ccc(C)cc2[nH]c1=O | ? | -2.5% | . | . | .
CCN(CC(=O)Nc1ccccc1C(=O)OC)S(=O)(=O)c1ccccc1 | 1.4% | 0.4% | i | 4.1e-09 | i
O=c1cc(O)nc(SCc2ccccc2)[nH]1 | ? | 1.8% | i | 3.85e-08 | i
CCOC(=O)c1csc(NC(=O)c2cc(OC)c(OC)c(OC)c2)n1 | ? | 3.7% | . | . | .
Cc1ccc(NC2c3ncccc3C(=O)N2C2CCCCC2)cc1C (centres undefined) | . | -0.5% | i | 1.46e-08 | i
COc1ccc(N2C(=O)CCC(C(C)=O)=C2C)cc1 | 4.4%[11.4 µM] | 1.8% | . | . | .
COc1ccccc1N1CCN(c2ncnc3c2oc2ccccc23)CC1 | . | 1.4% | i | 2.91e-08 | i
COC(=O)c1ccc2c(=O)n(CCCN3CCCC3=O)c(=S)[nH]c2c1 | -2.4% | -2.8% | i | 1e-09 | i
COCCNC(=O)CSc1nc(-c2ccc(OC)c(OC)c2)cc(C(F)(F)F)n1 | 0.1% | 2.2% | i | 6.67e-08 | i
CCN(CCCNC(=O)CCCCn1c(=O)[nH]c2ccccc2c1=O)c1ccccc1 | -0.4% | -0.1% | i | 2.2e-09 | i
COc1ccccc1OCCOc1ccccc1/C=N/n1cnnc1 | 27.0% | -1.4% | . | . | .
N#C/C(C(=O)N1CCCCC1)=C1\Nc2ccccc2S1 | . | . | i | 3.3e-09 | i
COc1ccccc1-n1c(CNC(=O)c2ccco2)nnc1SCC(=O)Nc1ccc(F)cc1 | 1.5% | 0.1% | i | 2.25e-08 | i
CC1=C(C#N)C(C(F)(F)F)(C(F)(F)F)N=C(c2ccco2)N1 | 15.6% | -1.8% | i | 1.56e-08 | i
CCCCC(SCC(=O)Nc1ccccc1)C(=O)O (centres undefined) | 6.5% | -2.8% | i | 8.1e-09 | i
COc1cc(S(=O)(=O)N(Cc2cccnc2)Cc2ccco2)ccc1-n1cnnn1 | 9.1% | -0.4% | i | 1.41e-08 | i
O=C(Nc1ccccc1C(=O)O)c1ccc2ccccc2n1 | 6.4% | 3.1% | . | . | .
O=C(Cc1ccccc1)N(c1ccc(F)cc1)C1C=CS(=O)(=O)C1 (centres undefined) | . | 0.7% | i | 9.1e-09 | i
c1ccc(Cn2nnnc2C(c2ccncc2)N2CCOCC2)cc1 (centres undefined) | -0.6% | -2.1% | i | 7e-09 | i
Cc1nnc(Oc2ccccc2)c2ccccc12 | 11.9% | 3.9% | i | 7.6e-09 | i
Cc1cccc(N2CCN(C(=O)Cn3nc(Cc4ccncc4)c4ccccc4c3=O)CC2)c1C | 13.8% | 0.1% | . | . | .
FC(F)(F)c1ccccc1-c1nccc(NCc2cccs2)n1 | ? | 2.3% | i | 1.2e-09 | i

Of the compounds above, these contain a CF3 group.
SMILES | TSHR ag | AID923 | Resorufin fluor | A647 fluor | A488 fluor
COCCNC(=O)CSc1nc(-c2ccc(OC)c(OC)c2)cc(C(F)(F)F)n1 | 0.1% | 2.2% | i | 6.67e-08 | i
CC1=C(C#N)C(C(F)(F)F)(C(F)(F)F)N=C(c2ccco2)N1 | 15.6% | -1.8% | i | 1.56e-08 | i
FC(F)(F)c1ccccc1-c1nccc(NCc2cccs2)n1 | ? | 2.3% | i | 1.2e-09 | i

Next section
SMILES | TSHR ag | AID923 | Resorufin fluor | A647 fluor | A488 fluor
O=C(O)COc1ccc(Cl)cc1CO | 4.5% | 5.1% | i | 1e-09 | i
CCC(=O)Nc1cccc(NC(=O)CSc2nnc(C(C)C)n2CC)c1 | ? | -1.5% | i | 6.45e-08 | i
O=C(c1cc2ccccn2n1)N1CCCC1 | -1.7% | -0.4% | . | . | .
CCn1nnnc1SCC(=O)Nc1ccc(OCc2ccccc2)cc1 | 8.7% | 1.2% | i | 1.36e-08 | i
CCc1ccc(NC(=O)CCn2c(=O)oc3ccccc32)cc1 | -2.7% | -0.6% | i | 1e-09 | i
Oc1ccccc1C1=Nc2nc3ccccc3n2C(c2ccccc2)C1 (centres undefined) | 9.4%[11.4 µM] | 1.5% | i | 2.8e-09 | i
O=C(c1cccc2ccccc12)N1CCN(CC2CC=CCC2)CC1 (centres undefined) | ? | 0.7% | i | 8.2e-09 | i
CCN1CCCC1CNC(=O)CSc1cc(=O)n(C)c2cc(Cl)ccc12 (centres undefined) | 11.4% | 1.6% | i | 1e-09 | i
CC(=O)Nc1ccc(S(=O)(=O)N2CCC(NC(=O)C(Cc3cccn3C)NC(C)=O)CC2)cc1 (centres undefined) | 11.7% | 0.0% | i | 1.79e-08 | i
O=C(O)c1ccc(NS(=O)(=O)/C=C/c2ccccc2)cc1O | 0.0% | -0.8% | i | 5.07e-08 | i
CCCCCCN(CCCCCC)C(=O)Cc1c(-c2ccc(Cl)cc2)[nH]c2ccc(Cl)cc12 | -0.8% | 2.7% | . | . | .
Cc1cc(NC(=O)CCC2CCCC2)no1 | 1.7% | -0.7% | i | 4.1e-09 | i
C1CCC(OCCN2CCN(CCOC3CCCCC3)CC2)CC1 | 9.7% | 0.2% | i | 1e-09 | i
O=C(O)c1ccc(NCc2nc3cc4ccccc4cc3[nH]2)cc1 | ? | 1.9%[11.5 µM] | i | 6.9e-09 | i
CCOC(=O)c1ccc2nc(NC(=O)c3cccs3)sc2c1 | 9.1% | -0.8% | i | 1e-09 | i
Cn1c(=O)c2cc(S(=O)(=O)NC(C(=O)NCc3cccnc3)c3ccccc3)ccc2n(C)c1=O (centres undefined) | -11.3% | -0.3% | . | . | .
O=C(NCc1ccco1)c1cnn2c1NC(c1ccc(Br)cc1)CC2C(F)(F)F (centres undefined) | 8.5% | -1.8% | . | . | .
Cc1ccc2c(c1)-c1c(ssc1=S)C(C)(C)N2C(=O)CSc1nncn1C | -34.5%[inhibitor] | 0.7% | . | . | .
O=S(=O)(NC1CC2CCC1C2)c1ccc(Br)s1 (centres undefined) | 27.8% | -1.9% | i | 2.2e-09 | i
COc1ccc(OC)c(S(=O)(=O)N2CCN(C)CC2)c1 | 1.2% | -0.9% | i | 8.3e-09 | i
CCN1CCN(C(=O)C2CC(c3ccc(F)cc3)=NO2)CC1 (centres undefined) | -10.1% | -0.8% | . | . | .
Cc1ccc(C)c(SCC(=O)Nc2nnc(-c3ccccc3)o2)c1 | 5.8% | 0.6% | i | 3.92e-08 | i
CC(=O)N=c1sc(C(C)(C)C)c(C)n1C | -8.9% | -0.8% | i | 1.3e-09 | i
COc1ccccc1CN1CCC2(CC1)CCN(S(C)(=O)=O)CC2 | ? | 0.8% | i | 1e-09 | i
COc1cc(C2CC(=O)c3cnc(NC(=O)COc4ccccc4)nc3C2)cc(OC)c1OC (centres undefined) | . | 2.3% | i | 2.4e-09 | i
CCOC(=O)CNC(=O)CSc1ncnc2c1cnn2Cc1ccccc1 | 6.8% | 1.4% | i | 2.5e-09 | i
COc1ccc(-n2c(=O)c(CCc3ccccc3)nc3cncnc32)cc1 | ? | 1.1% | i | 2.1e-09 | i
Cc1ccc(S(=O)(=O)N2CCOCC2)cc1C(=O)NCc1ccco1 | -2.8% | 0.2% | i | 3.3e-09 | i
COc1ccc(OC)c(C(=O)CSc2nnc(-c3cccs3)o2)c1 | 17.6% | 4.0% | i | 1e-09 | i
COc1ccc(NC(C)=O)cc1NC(=O)CN1CCN(C2c3ccccc3-c3ccccc32)CC1 | . | 0.2% | i | 3.5e-08 | i
O=C(Nc1ccccn1)N1CCOCC1 | -5.2% | -0.1% | i | 1e-09 | i
N#Cc1ccc(CSc2nnc(NC(=O)CN3C(=O)C4CC=CCC4C3=O)s2)cc1 (centres undefined) | ? | 6.6% | i | 1e-09 | i
CC(=O)c1cnc(Nc2nc(C)c3ccccc3n2)nc1C | -3.5% | 0.4% | i | 1.5e-09 | i
CCCSc1oc(-c2ccco2)nc1S(=O)(=O)c1ccccc1 | ? | 0.5% | i | 5e-09 | i
CO[C@@H]1/C=C\CC(=O)N[C@@H](C)C(=O)OC[C@@H](OC)[C@H](C)/C=C\CC(=O)OC[C@H]1C | -8.3%[11.4 µM] | -1.7%[11.5 µM] | . | . | .
O=C1CN(c2ccccc2Cl)C(=O)CN1c1ccccc1Cl | 2.2% | -1.1% | i | 1e-09 | i
